# Assay outcomes: PubChem, National Center for Advancing Translational Sciences (NCATS)
# TRPML1 inh = human mucolipin-1 channel inhibition; actives 0.02% (n = 390,000); activity change, negative = inhibition, % (concentration not given with the values); Q9GZU1; TRPML1-inducible cells, Ca2+ dye fluorescence, FDSS; active compounds read low; inhibition of EC80 agonist-evoked calcium signal; in the data active means activity change below about -50%; inconclusive means about -30% to -50%; inactive means above about -30%;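 further: stimulus is agonist 54-4 at its EC80 concentration; on the % scale 0 is the no-effect control and ±100 the full control effect; the text of the record puts the active cut at -80%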
# Target sequence (Q9GZU1 whole entry, looked up): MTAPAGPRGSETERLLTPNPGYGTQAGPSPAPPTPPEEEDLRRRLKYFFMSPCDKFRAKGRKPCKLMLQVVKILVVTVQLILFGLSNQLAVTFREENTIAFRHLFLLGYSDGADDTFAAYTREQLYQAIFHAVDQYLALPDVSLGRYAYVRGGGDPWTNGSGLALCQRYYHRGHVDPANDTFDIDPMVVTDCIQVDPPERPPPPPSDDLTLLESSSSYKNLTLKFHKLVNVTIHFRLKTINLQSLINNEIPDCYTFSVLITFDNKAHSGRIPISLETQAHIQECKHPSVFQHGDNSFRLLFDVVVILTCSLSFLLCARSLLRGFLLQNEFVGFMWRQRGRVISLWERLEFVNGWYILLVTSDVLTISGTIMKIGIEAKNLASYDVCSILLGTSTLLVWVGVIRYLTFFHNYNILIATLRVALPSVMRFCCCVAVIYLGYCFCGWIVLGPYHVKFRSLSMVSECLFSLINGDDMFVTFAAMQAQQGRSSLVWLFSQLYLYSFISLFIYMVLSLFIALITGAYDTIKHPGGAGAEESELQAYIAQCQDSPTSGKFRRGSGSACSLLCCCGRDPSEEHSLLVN
#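 Tet-induced TRPML1-DL cells loaded with Ca8 no-wash calcium dye were read kinetically on FDSS. Compound addition was followed by EC80 agonist 54-4 (4 uM final); inhibition was read over 110 s.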
# D2 ag = activates the human D2 dopamine receptor | actives 0.084% (n = 360,000) | DiscoveRx PathHunter D2 beta-arrestin, luminescence, 90 min; 100% = 57 uM dopamine signal | activation, % (no concentration beside the values) | P14416 | AID 624465; in the data active = activation above about 40%; inconclusive = about 15% to 40%; inactive = below about 15%; further: compound concentration not given in the record; the text of the record calls up to 30% inactive
# Target sequence (P14416 whole entry, looked up): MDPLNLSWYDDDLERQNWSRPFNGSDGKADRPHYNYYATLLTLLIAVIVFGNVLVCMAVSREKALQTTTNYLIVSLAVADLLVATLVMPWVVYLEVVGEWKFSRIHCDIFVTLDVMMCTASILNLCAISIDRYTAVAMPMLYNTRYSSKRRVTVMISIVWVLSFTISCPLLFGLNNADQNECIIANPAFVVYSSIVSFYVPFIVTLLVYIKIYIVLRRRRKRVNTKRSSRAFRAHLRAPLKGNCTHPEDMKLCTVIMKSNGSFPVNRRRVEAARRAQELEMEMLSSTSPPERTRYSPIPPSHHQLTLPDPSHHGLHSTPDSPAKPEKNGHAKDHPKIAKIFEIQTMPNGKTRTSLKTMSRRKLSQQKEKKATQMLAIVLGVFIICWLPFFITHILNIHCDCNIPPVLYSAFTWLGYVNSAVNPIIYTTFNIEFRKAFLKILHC
#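 DiscoveRx PathHunter D2 beta-arrestin cells (2,100/well) attached overnight, then compound-stimulated 90 min at 37 C in HBSS/10 mM HEPES/0.1% Tween-20 buffer; beta-galactosidase complementation read by luminescence after 1 h at ambient temperature. Dopamine 57 uM final (EC100) as control.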
# TRPML1 agonist = agonists of human TRPML1 channel; Q9GZU1; TRPML1-expressing cells, Ca2+ dye fluorescence, FDSS; host cell line not named in the record; reference of the full effect not given here; activation, % (test concentration not listed); actives 0.12% (n = 410,000); AID 624414; in the data active = activation above about 50%; inconclusive = about 30% to 50%; inactive = below about 30%; further: 0% is about no effect; the text of the record puts the active cut at 80%
#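 Cells: TRPML1-DL, 1X Tet inducer, ~16 h at 37 degrees C/5% CO2. Dye: ABD Ca8 no-wash + quencher, 45-90 min RT. Read: 10 s baseline, compound add, 110 s agonist phase; 54-4 EC80 (4uM final), 110 s antagonist phase.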
# Six1-Eya2 blk = Six1/Eya2 interaction inhibition | Q15475+O00167 | AlphaScreen GST-Six1/His-Eya2 binding, biochemical; active compounds read low; control for the full effect not named in the record | activity change, % (no concentration beside the values) | actives 0.56% (n = 360,000) | AID 651725; in the data active = activity change below about -65%; inconclusive = about -30% to -65%; inactive = above about -30%; further: on the % scale 0 is the no-effect control and ±100 the full control effect
#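 Homogeneous AlphaScreen proximity assay pairing GST-Six1 with His-tagged Eya2 (added as 5X mix: 250 nM and 500 nM) in 50 mM Tris pH 8.0, 300 mM NaCl, 1 mM TCEP. Glutathione donor and nickel acceptor beads; 1 h, 37 °C, dark.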
# PINK1 modulator = modulators of PINK1 expression; actives 0.2% (n = 410,000); PINK1 immunofluorescence, high-content cytometry, 24 h; AID 624263; Potency, µM (top dose mostly 76.6 µM), without a hit: at the top dose activation (PINK1 increase), hits mostly activators; active = well fitted activation curve with a large enough effect; inconclusive = small, poorly fitted or top-dose-only effect; inactive = flat fitted curve, though single readings scatter; cell line not stated here;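 further: potency means the concentration at half of the fitted maximal effect; % of control where 0% means no effect; nearly all actives have a fitted effect of over 65% in size; a mitochondrial uncoupler was the plate control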
#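 A stable cell line was treated with compounds at 5 concentrations for 24 hours, with CCCP as control. PINK1 levels and mitochondrial localization were measured by immunofluorescence with mitochondrial, cell and nuclear markers after fixation, read by laser-scanning cytometry.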
# D2 PAM = positive allosteric modulators of human D2 dopamine receptor; DiscoveRx D2 beta-arrestin cells, luminescence, 90 min; 100% = 57 uM dopamine signal; P14416; potentiation, % (concentration not given with the values); actives 0.23% (n = 360,000); active = potentiation of 50% or more; inconclusive = 30% to 50%; inactive = 30% or less;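 further: compound concentration not given in the record; tested on top of an EC20 dose of dopamine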
#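 PathHunter D2 cells, attached overnight at 37 deg C, received compound in DMSO plus dopamine at EC20 (50 nM final) for 90 min at 37 deg C. Beta-arrestin recruitment was read as luminescence after 1 h with detection reagent at ambient temperature.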
# Starred values were filed as active, the others as inactive; u = inconclusive; x = no result given; & = joins results of further samples; [ ] = remark or other dose.
SMILES,TRPML1 inh,D2 ag,TRPML1 agonist,Six1-Eya2 blk,PINK1 modulator,D2 PAM
CNC(=S)Nc1ccc(-c2nc3ccc(C)cc3s2)cc1,6.7,0.5,1.3,-2.5,3.0%,-4.6
Cc1onc(-c2c(Cl)cccc2Cl)c1C(=O)NCCc1ccc(S(N)(=O)=O)cc1,21.6,-1.6,-1.1,0.0,-2.4%,-3.5
C=CCn1c(C2CCCCC2)n[nH]c1=S,-1.8,-3.0,-0.8,-7.5,-0.5%,-4.4
CC(=O)Nc1ccc(S(=O)(=O)NCCC(=O)Nc2cccc(Cl)c2)cc1,-2.4,2.1,0.3,-18.6,3.4%,-9.2
O=C(O)c1ccc(NS(=O)(=O)c2cccc3cccnc23)cc1,2.2,0.5,-0.3,6.2,1.8%,-7.2
Cc1nnc(NC(=O)CSc2nc(N)c(NC(=O)c3cccs3)c(=O)[nH]2)s1,6.1,-0.7,0.7,1.7,5.1%,-0.5
COC(=O)c1cc2c(cc1[N+](=O)[O-])OCO2,-1.4,-2.9,0.2,-9.2,-1.4%,-2.0
O=C(Nc1c(C(=O)Nc2cccc(F)c2)oc2ccccc12)c1cc2ccccc2o1,-15.9,x,0.9,x,4.0%,x
CC1(C)C(N(O)C(=O)Nc2ccccc2)N(c2cccc(Cl)c2)C(=O)N1O (stereo unspecified),32.7,-3.0,0.6,8.1,3.4%,6.7
COc1ccccc1NC(=O)CSc1nc(N)cc(N)n1,-1.9,-0.9,0.9,3.9,9.4%[38.3 µM],2.0
O=C(O)CCNc1cc2ccccc2cc1C(=O)O,0.0,4.0,-0.9,-2.0,0.2%,u
Cc1nc(N2CCN(S(=O)(=O)c3ccc(Br)cc3)CC2)c2c(C)c(C)sc2n1,-19.3,1.3,0.5,-11.9,-1.9%,-1.9
Cc1ccc(-n2nc(C)c(C3(O)C(=O)N(C)c4ccccc43)c2N)cc1 (stereo unspecified),4.3,-0.9,0.1,3.5,-0.3%,0.3
CC(C)N(Cc1ccccc1)C(=O)CN1c2cccc3cccc(c23)S1(=O)=O,4.4,-1.7,0.4,1.5,-2.2%,14.5
CC(C)(C)CC(=O)NCc1cccs1,4.0,-2.5,0.1,5.3,-0.2%,-10.1
O=C(Nc1ccccc1C(=O)NC1CCCCC1)c1ccccc1,7.1,-0.7,1.5,8.4,11.6%,-0.7
COCCNC(=O)C(c1ccc(C)o1)N(C(=O)Cn1nnc2ccccc21)c1ccccc1 (stereo unspecified),18.6,-0.9,0.7,1.2,0.9%,-3.2
COc1ccc(S(=O)(=O)N(C)C[C@H]2Oc3c(NC(=O)NC4CCCCC4)cccc3C(=O)N([C@H](C)CO)C[C@@H]2C)cc1,-8.1,-1.6,0.3,-1.5,8.2%,-2.6
Nc1ccc(N(c2ccccc2)c2ccc(N)cc2)cc1,-15.5,9.1,-0.3,-20.4,u,19.4
Fc1ccc2nc(-c3ccccc3)nc(SCc3nnc(-c4ccccc4)o3)c2c1,-13.0,-3.4,1.8,-0.2,4.4%,-14.5

# Quoted at random: 6 entries already listed, in no set order.
SMILES,TRPML1 inh,D2 ag,TRPML1 agonist,Six1-Eya2 blk,PINK1 modulator,D2 PAM
Fc1ccc2nc(-c3ccccc3)nc(SCc3nnc(-c4ccccc4)o3)c2c1,-13.0,-3.4,1.8,-0.2,4.4%,-14.5
O=C(O)CCNc1cc2ccccc2cc1C(=O)O,0.0,4.0,-0.9,-2.0,0.2%,u
O=C(Nc1ccccc1C(=O)NC1CCCCC1)c1ccccc1,7.1,-0.7,1.5,8.4,11.6%,-0.7
CC(C)N(Cc1ccccc1)C(=O)CN1c2cccc3cccc(c23)S1(=O)=O,4.4,-1.7,0.4,1.5,-2.2%,14.5
Nc1ccc(N(c2ccccc2)c2ccc(N)cc2)cc1,-15.5,9.1,-0.3,-20.4,u,19.4
CC(C)(C)CC(=O)NCc1cccs1,4.0,-2.5,0.1,5.3,-0.2%,-10.1

# Remaining list, next part
SMILES,TRPML1 inh,D2 ag,TRPML1 agonist,Six1-Eya2 blk,PINK1 modulator,D2 PAM
O=C(Cc1ccccc1[N+](=O)[O-])NNC(=O)c1ccncc1,-19.6,-6.1,-0.1,7.3,-1.9%,1.0
O=C(NCCc1ccccn1)c1c(-c2ccsc2)sc2ccccc12,4.1,-1.6,0.3,5.1,3.0%,x
CCNC(=O)COC(=O)CCNC(=O)c1ccc(Cl)cc1,x,-21.7,x,0.3,1.4%,3.3
COc1cccc(NC(=O)C2CCC(CNS(=O)(=O)c3cccc4cccnc34)CC2)c1 (stereo unspecified),-6.5,0.6,1.7,8.4,-0.6%,-1.5
O=C(NCCc1ccc(Cl)cc1)c1cc(S(=O)(=O)N2CCCC2)ccc1F,8.2,0.5,0.8,-4.3,4.2%,-10.6
CCSc1nccc(-c2nn(-c3ccc(C)cc3)ccc2=O)n1,-1.5,-0.6,0.1,-6.0,0.6%,10.2
CCOP1(=O)C=C(C(C)(C)C)OC1c1ccc(F)cc1 (stereo unspecified),-3.6,-0.3,0.0,5.7,0.2%,-11.4
Cc1nnc(N2CCN(c3ccccc3)CC2)c2c1nnn2Cc1ccc(F)cc1,14.1,x,-1.0,x,-0.5%,x
CC(=O)c1cc(F)c(N2CCN(CCC#N)CC2)cc1C,-14.1,-4.2,-0.4,1.3,0.8%,-5.5
CC[C@@H](C)C(NC(=O)OC(C)(C)C)c1cn([C@@H](CCC(=O)OC(C)(C)C)C(=O)N2CCN(C(=O)OC(C)(C)C)CC2)nn1 (stereo partly specified),-7.3,1.1,-1.0,0.0,0.9%,5.0
Cc1cccc(N2CCN(C(=O)Cn3cccc3C(=O)c3ccccc3)CC2)c1C,-10.2,-0.5,2.1,-11.2,-2.7%,-15.1
O=C(Nc1ccc(N2CCOCC2)c(Cl)c1)c1ccc(F)cc1,13.9,-3.9,-0.5,-0.6,-2.8%,-6.5
NC(=O)CSc1nnc(-c2cc(-c3cccs3)nc3ccccc23)o1,-2.0,-0.5,0.2,0.9,8.4%,-1.7
Cc1ccc(NC(=O)Nc2cccs2)cc1,-7.0,-2.6,0.5,4.5,-1.2%,-12.3
CC(=O)c1ccc(C(=O)N2CCc3c([nH]c4ccccc34)C2c2ccccn2)s1 (stereo unspecified),-13.3,-0.8,0.1,-10.3,1.0%,-15.1
COc1cc2c(cc1OC)C(C)N(C(=O)c1ccc(Cl)c(S(=O)(=O)N3CCCCC3)c1)CC2 (stereo unspecified),4.4,6.2,0.9,-5.6,3.0%,-0.2
CCC(C)NC(=O)C1CCN(S(=O)(=O)c2ccc(Br)s2)CC1 (stereo unspecified),1.5,-2.8,-0.6,2.5,3.1%,-9.6
CCNc1nc(NC(C)C)nc(Oc2ccc(OCc3ccccc3)nn2)n1,4.4,1.0,1.8,6.7,0.4%,14.7
O=C(CCS(=O)(=O)c1ccc(Br)cc1)Nc1cc(F)ccc1F,4.7,-0.6,4.0,-3.0,0.1%,-3.7
COc1ccc2c(c1)c1c(c(=O)n(-c3ccccc3C)c(=O)n1Cc1cccc(C(F)(F)F)c1)n2C,5.8,x,0.1,x,1.2%,x
Fc1ccc(-c2csc(-c3ccncc3)n2)cc1,19.5,0.4,1.1,0.6,0.2%,-17.4
Cn1c(=O)cc(SCC(=O)N2CCN(c3ccccc3)CC2)c2ccccc21,0.6&-0.3,-1.5,-1.1&0.0,-11.5,-0.2%&-0.5%,0.7
COc1ccc(NC(=S)NN(C)C(=S)Nc2ccc(OC)cc2)cc1,26.6,9.0,-0.9,-14.1,10.6%,u
CCN(CC(=O)Nc1c(F)cccc1F)C(=O)c1ccc2ccccc2n1,-12.7,-2.8,0.8,4.6,2.0%,4.1
Cc1ccc(N2CC(O)=C(c3nc4ccccc4c(=O)[nH]3)C2=N)cc1C,-1.3,-13.5,2.4,-7.6,8.2%,-1.4
Cc1cccc(NC(=O)CSCC(=O)Nc2ccccc2C(=O)N2CCCCC2)c1,-2.1,-2.8,-0.6,3.8,2.0%,-5.1
CCc1ccc(C(=O)NCc2ccc(Cl)cc2Cl)cc1,10.6,-2.8,0.6,20.2,6.2%,-9.8
COC(=O)c1ccc(C23CC4(C2)[C@H](CN(Cc2ccc(C(F)(F)F)cc2)[C@@H]4c2ccccc2)C3c2ccccc2)cc1 (stereo partly specified),-17.5,-3.6,0.8,-1.0,-0.8%,-7.4
O=c1[nH]c(=O)n(-c2ccccc2)c2c1C(C(F)(F)F)(C(F)(F)F)N=C(C1CCCCC1)N2,-7.1,-6.7,0.0,5.3,0.0%,-4.1
Cc1cccc(NC(=S)NCCc2ccc(F)cc2)c1C,7.7,-4.2,0.9,-12.6,3.1%,-6.8
Cc1cc(C)n2nc(C(=O)OCC(=O)N3CCC3)nc2n1,4.0,-4.3,-0.4,-13.2,-2.4%,-10.5
O=C(Cc1ccccc1)N(c1ccccc1)c1ccccc1,-1.9,-3.0,0.6,4.8,1.9%,2.2
Cc1cc(Br)cn2c(Cc3ccccc3C(F)(F)F)c(-c3ccccc3)nc12,x,x,-0.1,-3.9,3.3%,x
COc1ccccc1C(=O)C1CCCN(C(=O)C2CCCC2)C1 (stereo unspecified),17.1,-2.9,-0.5,4.0,0.1%,-4.3
Cc1ccc(C(=O)OCC(=O)NCCc2ccccc2)cc1S(=O)(=O)N1CCOCC1,8.0,2.0,0.1,8.7,3.1%,6.5
COc1ccc(S(=O)(=O)N2CCC(C(=O)NCC3CCCO3)CC2)cc1OC (stereo unspecified),1.9,-0.1,-0.2,4.4,-1.2%,-6.0
O=C(CSc1nnc(Cc2ccccc2)n1-c1cccc(Cl)c1)N1CCOCC1,39.2,-0.6,-0.2,0.5,-2.2%,-3.5
Cc1ccc(-c2ccc(S(=O)(=O)NCc3ccco3)cc2)cc1,-2.9,6.2,-0.8,2.7,2.8%,-1.0
COc1cc(C(C#N)N2CCCCC2)ccc1O (stereo unspecified),-3.2,1.6,0.1,-3.8,2.2%,-5.5
Cc1nc(CCNC(=O)CC2C(=O)NCCN2Cc2ccccc2)sc1C (stereo unspecified),-12.4,-2.5,0.4,2.9,-2.5%,0.4
CC(=O)C(Sc1ccc2nnc(-c3ccncc3)n2n1)C(C)=O,5.4,-5.3,-0.9,1.6,0.5%,-1.3
Cc1ccc(/C=C2/C(=O)c3ccc(C(=O)O)cc3C2=O)o1,4.0,-4.1,0.6,u,-1.8%,-22.5
COc1cc(NC(=O)Cc2c(C(=O)O)c(C)cn2C)cc(OC)c1,-2.4,x,1.3,x,-0.7%,x
COc1cc(OC)c(CN2CCN(c3ccc(F)cc3)CC2)cc1Br,0.5,-1.3,-0.7,u,8.3%[38.3 µM],-15.5
COc1ccc(CCC(=O)Nc2ccccc2C(F)(F)F)cc1,4.7,0.6,0.3,11.9,3.1%,-15.7
CC(C)c1ccc(CC(=O)N2CCC2(C)C(=O)Nc2ccccc2)cc1 (stereo unspecified),x,4.6,-0.4,2.3,1.3%,-2.5
